# Assay outcomes as filed in PubChem.
# TRPV1 PAM – enhances activation of the human vanilloid receptor TRPV1 | potentiation, % at 8.33 µM | AID 540277 | 320,000 tested, 0.02% active | TRPV1-expressing cells, Fluo-8 calcium influx, capsaicin EC20 potentiation; host cell line not named in the record; control for the full effect not named in the record | Q8NER1; active means potentiation above 80%; inconclusive means 30% to 80%; inactive means below 30%; further: 0% is about no effect
# Target sequence (Q8NER1 whole entry, looked up): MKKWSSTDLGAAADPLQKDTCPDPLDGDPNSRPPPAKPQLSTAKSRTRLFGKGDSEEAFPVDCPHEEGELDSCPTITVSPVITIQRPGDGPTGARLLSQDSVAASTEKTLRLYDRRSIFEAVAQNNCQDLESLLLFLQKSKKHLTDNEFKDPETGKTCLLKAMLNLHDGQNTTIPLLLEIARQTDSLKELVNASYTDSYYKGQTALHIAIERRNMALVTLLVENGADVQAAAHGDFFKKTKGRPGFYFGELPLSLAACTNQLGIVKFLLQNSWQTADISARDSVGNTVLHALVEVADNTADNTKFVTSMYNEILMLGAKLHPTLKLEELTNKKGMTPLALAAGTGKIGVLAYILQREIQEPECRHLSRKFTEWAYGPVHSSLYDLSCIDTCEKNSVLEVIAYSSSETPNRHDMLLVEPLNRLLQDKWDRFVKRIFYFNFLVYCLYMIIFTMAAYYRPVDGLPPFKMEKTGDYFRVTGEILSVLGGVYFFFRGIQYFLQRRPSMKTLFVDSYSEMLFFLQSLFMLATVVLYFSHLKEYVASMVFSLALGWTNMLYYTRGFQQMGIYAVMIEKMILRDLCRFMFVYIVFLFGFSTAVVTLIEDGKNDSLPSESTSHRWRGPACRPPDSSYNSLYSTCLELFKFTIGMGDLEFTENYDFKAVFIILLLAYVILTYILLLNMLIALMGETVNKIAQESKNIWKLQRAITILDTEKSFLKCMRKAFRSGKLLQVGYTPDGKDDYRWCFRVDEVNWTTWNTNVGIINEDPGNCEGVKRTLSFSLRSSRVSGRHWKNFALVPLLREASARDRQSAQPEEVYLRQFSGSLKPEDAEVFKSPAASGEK
#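 Fluo-8 calcium influx in TRPV1-expressing cells, kinetic read (ex 480/em 520 nm). Compound added and read 3 min for agonist activity, followed by capsaicin at EC20 final and 2 min further read for enhancement.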
# PINK1 modulator – changes PINK1 expression. PINK1 immunofluorescence, high-content cytometry, 24 h. Potency, µM (top dose mostly 76.6 µM), inactives show at the top dose activation (PINK1 increase), hits mostly activators. 410,000 tested, 0.2% active. AID 624263; active = well fitted activation curve with a large enough effect; inconclusive = small, poorly fitted or top-dose-only effect; inactive = flat fitted curve, though single readings scatter; cell line not stated here;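 further: potency means the concentration at half of the fitted maximal effect; % of control where 0% means no effect; nearly all actives have a fitted effect of over 65% in size; a mitochondrial uncoupler was the plate control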
#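 PINK1 protein level read as immunofluorescence by microplate cytometer in a fixed, stained stable cell line after 24 h exposure to five compound concentrations, with CCCP as control.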
# Six1-Eya2 inh – Six1/Eya2 interaction inhibition | Q15475+O00167 | 360,000 tested, 0.56% active | AlphaScreen GST-Six1/His-Eya2 binding, biochemical; hits give low values; control for the full effect not named in the record | activity change, % (test concentration not listed) | AID 651725; in the data active = activity change below about -65%; inconclusive = about -30% to -65%; inactive = above about -30%; further: on the % scale 0 is the no-effect control and ±100 the full control effect; compound concentration not given in the record
#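 AlphaScreen luminescence read after one hour at 37 °C in darkness. Pin-transferred compounds met GST-Six1 and His-Eya2 protein (5X stock 250 nM/500 nM) plus glutathione donor and Ni-chelate acceptor beads (5X, 50 ug/mL).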
# Sfp inh – inhibitors of Bacillus subtilis Sfp phosphopantetheinyl transferase; 310,000 tested, 3.5% active; AID 1490; Potency, µM, without a hit: max response, negative = inhibition, most hits filed as inhibitors; Q9F4F7; Biochemical Sfp PPTase activity, qHTS; active means well fitted inhibition curve with a large enough effect; inconclusive means small, poorly fitted or top-dose-only effect, or another doubt; inactive means no such curve, though single readings can be large or run the other way;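 further: the enzyme is Sfp with the accession as filed and its product quenches rhodamine fluorescence; potency means the concentration at half of the fitted maximal effect; 0% = enzyme reaction without inhibitor and -100% = no enzyme wells; top concentration of the series not given in the record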
#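 Fluorescence-quenching assay with 15 nM Sfp, 5 uM rhodamine-CoA and 12.5 uM BHQ-2-labelled ybbR peptide in pH 7.6 Hepes/MgCl2 buffer. Enzyme was pre-incubated with compound for 15 min at room temperature. Rate was taken from the 30-min fluorescence change (525/598 nm).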
# D2 potentiator – potentiates the human D2 dopamine receptor allosterically | P14416 | DiscoveRx D2 beta-arrestin cells, luminescence, 90 min; 100% = 57 uM dopamine signal | potentiation, % (test concentration not listed) | 360,000 tested, 0.23% active; active = potentiation of 50% or more; inconclusive = 30% to 50%; inactive = 30% or less;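 further: compound concentration not given in the record; tested on top of an EC20 dose of dopamine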
#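 D2 cells co-treated with compound plus 50 nM dopamine (EC20) for 90 min at 37 deg C to detect potentiation. Beta-arrestin recruitment was read as enzyme-fragment luminescence after 1 h at ambient temperature. Full response was set by 57 uM dopamine.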
# D2 agonist – human D2 receptor agonism in beta-arrestin assay. P14416. DiscoveRx PathHunter D2 beta-arrestin, luminescence, 90 min; 100% = 57 uM dopamine signal. activation, % (concentration not given with the values). 360,000 tested, 0.084% active. AID 624465; in the data active = activation above about 40%; inconclusive = about 15% to 40%; inactive = below about 15%; further: compound concentration not given in the record; the text of the record calls up to 30% inactive
#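 Agonist mode: compounds alone added to overnight-plated D2 PathHunter cells for 90 min at 37 C, with 57 uM final dopamine (EC100) defining full response. Beta-arrestin recruitment detected by chemiluminescent reagent, read after 1 h at ambient temperature.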
# CtBP-E1A inh – inhibitors of CtBP/E1A interaction; activity change, % (no concentration beside the values); AlphaScreen GST-E1A/His-CtBP binding, 1536-well; hits give low values; control for the full effect not named in the record; AID 651724; 340,000 tested, 0.49% active; in the data active means activity change below about -65%; inconclusive means about -30% to -65%; inactive means above about -30%; further: on the % scale 0 is the no-effect control and ±100 the full control effect; compound concentration not given in the record
#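 AlphaScreen with 125 nM GST-E1A and 125 nM His-CtBP (5X stocks) in Tris pH 8.0, 300 mM NaCl, BSA, Tween 20, TCEP. Compounds preincubated 2 h at 37 deg C, then glutathione donor/nickel acceptor beads added for 1 h at 37 deg C in dark.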
# Starred values were filed as active, the others as inactive; u = inconclusive; x = no result given; & = joins results of further samples; [ ] = remark or other dose.
SMILES,TRPV1 PAM,PINK1 modulator,Six1-Eya2 inh,Sfp inh,D2 potentiator,D2 agonist,CtBP-E1A inh
O=C(NCc1ccccc1Cl)C1(S(=O)(=O)c2ccc(Cl)cc2)CC1,u,1.7%,-6,13%,-2,-4.7,4
CCCCn1c(Nc2ccc(OC)cc2)nc2ccccc21,14,5.1%,-7,4%,-6,-0.4,x
O=C(/C=C/c1ccccc1)NNC(=O)c1ccco1,8,0.5%,4,15%,-10,0.2,-6
Cc1cc(S(=O)(=O)N2CCCOC2CNC(=O)C(=O)NCCCN2CCOCC2)ccc1F (stereo unspecified),6,-1.1%,0,4%,11,0.1,-4
CC(=O)Nc1ccccc1C(=O)C(=O)Nc1cccc(C(=O)NCc2ccccc2)c1,7,-0.5%,3,19%,-15,0.5,6
O=S(=O)(c1cccc2cnccc12)N1CCNCC1,9,0.4%,8,-7%,-10,-1.5,-20
COC(=O)N(C)CCCC1(C)C(=O)N(C)c2ccc(O)cc21 (stereo unspecified),2,0.0%[38.3 µM],1,8%,1,-3.2,2
CCCCn1c(N)c(N(CC(C)C)C(=O)CCNC(=O)c2ccc([N+](=O)[O-])cc2)c(=O)[nH]c1=O,1,3.7%,9,x,17,-0.2,-27
CC(=O)N1CCc2cc(S(=O)(=O)NCCC(=O)Nc3cc(C)cc(C)c3)ccc21,4,0.6%,-3,8%,-9,-2.0,-8
CCN(Cc1ccncc1)Cc1cn(C)nc1-c1ccc(Oc2ccccc2)cc1,-15,-0.8%,-2,-15%,-18,-4.4,-22
COc1ccc(C)cc1S(=O)(=O)N(C)CC(=O)NCc1ccncc1,19,0.4%,12,8%,-2,-0.5,25
COc1ccc(N2C(=O)c3ccc(C(=O)Nc4ccccc4O)cc3C2=O)cc1,-5,6.3%,2,17%,-2,-4.4,-3
O=C(N1CCOCC1)C(F)(F)C(F)(F)C(F)(F)C(F)(F)C(=O)N1CCOCC1,u,-2.0%,6,15%,-9,-0.3,3
CC(C)c1nnc(NC(=O)C2CCCN2C(=O)Nc2ccc(F)cc2)s1 (stereo unspecified),-6,1.2%,1,14%,-10,-0.3,13
O=C(C1CCCCCC1)N1CC[C@@H](N2CCC(O)CC2)[C@H](O)C1,-16,-0.5%,9,0%,-8,-0.5,4
CCOC(=O)N1CCN(CCC(=O)c2ccc(Br)cc2)CC1,4,1.0%,-3,50µM*,-5,0.9,7
COc1ccc(C(=O)N/N=C/c2ccccn2)cc1OC,1,-0.7%,u,u,-1,-2.7,-5
CCOc1ccccc1/C=C/C(=O)N1CCN(C(=O)c2ccco2)CC1,x,-1.4%,-3,x,-14,0.3,1
CCCOc1nc(SCCC)nc2c1cnn2-c1ccccc1,-12,13%,3,-3%,-3,-0.9,19
NC(N)=N/N=C/c1cccc(Cl)c1Cl,-5,-2.3%,5,2%,-22,-0.2,0
COCCCn1c(SCC(=O)N2CCCCC2C)nnc1-c1ccco1 (stereo unspecified),7,6.8%[38.3 µM],2,u,-1,-3.6,2
O=C(CN1C(=O)C(=O)N(Cc2ccco2)C1=O)NC1CCCCC1,1,-1.3%,2,u,-1,0.1,-8
Cc1cccc(C)c1OCc1nnc(SCC(=O)Nc2ccccc2F)o1,-8,0.5%,0,0%,0,-1.2,6
CCS(=O)(=O)c1ccccc1C(=O)NC1CCCc2ccccc21 (stereo unspecified),-8,4.7%,7,4%,-5,2.8,-8
O=c1c2ccccc2nnn1CSc1nnnn1-c1ccc(O)cc1,0,1.5%,-2,u,-12,-0.1,x
O=C(Nc1ccc(F)cc1F)NC1CCN(S(=O)(=O)c2ccc(F)cc2)CC1,8,0.2%,14,-13%,-4,1.5,-1
COc1ccc(Cc2nc(-c3ccncc3)no2)cc1,-8,1.2%,-10,8%,51*,-1.3,x
Cc1cccc(-n2c(C)cc(/C=C3\C(=N)N4N=C(CC(C)C)SC4=NC3=O)c2C)c1,-3,15%,-7,8%,-16,-2.1,3
O=C(O)CC(NC(=O)C12CC3CC(CC(C3)C1)C2)c1ccc(Cl)cc1 (stereo unspecified),22,-0.2%,3,15%,2,-1.7,x
CCOC(=O)NC(=O)/C(N=Nc1ccc(C(F)(F)F)cc1)=C(\C)O,6,6.3%,3,10%,-6,2.2,4
COc1cc(CNC2CCCCC2)c(Br)cc1OC1CCCC1,-2,13%,4,0%,-29,-3.7,x
C[C@@H]1COC(=O)[C@H](CC(=O)OC(C)(C)C)C/C=C\C[C@@H](CC(=O)N[C@H](CO)Cc2ccccc2)C(=O)N1,x,-1.1%,6,x,-14,-0.5,4
CCOc1cc(C(=O)NN2CCOCC2)cc(OCC)c1OCC,18,0.2%,1,14%,0,-2.3,13
CC(CCc1ccccc1)NC(=O)COC(=O)c1ccccc1Br (stereo unspecified),-5,0.4%,2,-1%,-5,-0.9,x
O=C(N/N=C/c1ccc(Br)cc1)c1ccc(Br)o1,-9,1.4%,-4,-28%,-17,-2.2,1
CCOc1ccccc1Cn1c(=O)sc2ccccc21,-1,1.8%,20,-9%,-4,-2.1,3
Cc1cc(C)c(S(=O)(=O)Nc2cccc(C(=O)O)c2)cc1S(=O)(=O)Nc1cccc(C(=O)O)c1,x,-0.8%,1,x,-10,-4.5,-1
c1ccc2c(c1)OCC(c1nnc3sc(-c4cnccn4)nn13)O2 (stereo unspecified),2,-0.9%[38.3 µM],-11,20µM*,4,-1.2,-22
O=C(CSCCO)Nc1ccc([N+](=O)[O-])cc1,5,0.2%,5,13%,-2,-1.3,7
CN(C[C@H](CC1CCCCC1)N(C[C@H](Cc1ccccc1)N(CCc1ccccc1)N=O)N=O)N=O,12,0.5%,-9,14%,-14,-0.7,-7

# Among those listed so far, these have bromine:
SMILES,TRPV1 PAM,PINK1 modulator,Six1-Eya2 inh,Sfp inh,D2 potentiator,D2 agonist,CtBP-E1A inh
CCOC(=O)N1CCN(CCC(=O)c2ccc(Br)cc2)CC1,4,1.0%,-3,50µM*,-5,0.9,7
COc1cc(CNC2CCCCC2)c(Br)cc1OC1CCCC1,-2,13%,4,0%,-29,-3.7,x
CC(CCc1ccccc1)NC(=O)COC(=O)c1ccccc1Br (stereo unspecified),-5,0.4%,2,-1%,-5,-0.9,x
O=C(N/N=C/c1ccc(Br)cc1)c1ccc(Br)o1,-9,1.4%,-4,-28%,-17,-2.2,1

# The list continues:
SMILES,TRPV1 PAM,PINK1 modulator,Six1-Eya2 inh,Sfp inh,D2 potentiator,D2 agonist,CtBP-E1A inh
CN(CCC#N)CC(=O)Nc1ccc(S(N)(=O)=O)cc1,-8,2.6%,15,24%,-4,-5.1,x
CC1Oc2ccccc2N(CC(=O)N(Cc2ccccc2)Cc2ccccn2)C1=O (stereo unspecified),21,-5.9%[38.3 µM],3,-4%,-2,1.3,0
Cc1ccc(S(=O)(=O)N(Cc2ccc(Cl)cc2)c2ccccc2C(=O)NCc2cccnc2)cc1,-9,25%,1,-18%,-8,-3.5,8
Cc1ccc(S/C(=N\S(=O)(=O)c2ccc(Cl)cc2)c2ccccc2)cc1,3,7.3%[38.3 µM],1,56µM*,6,0.2,-3
CSc1nc2ccc(S(=O)(=O)N(C)C)cc2s1,24,-0.6%,6,11%,-3,-1.5,2
Cc1ccc2[nH]c(=O)c3cc(C(=O)NCC4CCCO4)sc3c2c1 (stereo unspecified),u,11%,3,5%,-4,-2.5,-2
Nc1ccccc1-c1nnc2n1CCCCC2,-14,1.5%,0,13%,2,-2.4,5
COC(=O)c1ccc(CNC(=O)C2CCC(=O)N(CCc3ccccn3)C2)cc1 (stereo unspecified),x,0.5%,9,x,-11,-4.2,-12
Cc1ccnc(NC(=O)CNC(=O)c2ccc3c(c2)OCO3)c1,-11,2.3%,-3,0%,0,-3.9,-7
CCNS(=O)(=O)c1ccc(CCC(=O)N2CCOCC2)cc1,-20,2.9%,5,1%,-3,-6.7,-3
O=C(Nc1cc(F)ccc1F)C1CCCO1 (stereo unspecified),-18,4.2%[38.3 µM],3,-2%,-7,-2.1,3
Cc1ccccc1-c1nc(P(=O)(c2ccccc2)c2ccccc2)c(N2CCOCC2)o1,-2,-0.4%,-22,-16%,-30,-6.1,-28
CCN(c1ccccc1)S(=O)(=O)c1ccc(C(=O)Oc2ccc(C(C)=O)cc2)cc1,-12,2.5%,1,4%,-22,-6.0,6
COC(=O)CCCC(=O)N1CCCC(C(=O)c2ccc(OC)cc2C)C1 (stereo unspecified),-3,0.4%,8,6%,-3,-5.2,-2
CCc1cc(C(=O)NNC(=O)CCN2CCN(c3ccccc3)CC2)sc1C,-5,1.3%,-5,6%,-22,3.6,1
Cc1cccc(-c2nnc(-c3cccc(NC(=O)Cc4cccs4)c3)o2)c1,12,-4.3%[38.3 µM],-7,17%,6,1.6,-4
O=C(O)CC1Oc2ccc(Cl)cc2NC1=O (stereo unspecified),8,2.2%,5,41%[activator],-1,-2.4,8
CCc1ccccc1NC(=O)COc1cccc2ccc(C)nc12,2,0.0%,0,6%,1,-4.0,-1
CCOc1ccccc1C(=O)Nc1nnc(COC)s1,14,-0.7%&-0.8%,4,14%,-5,-2.8,-5
CC(=O)NC(CC(=O)N(C)Cc1cccc(Cl)c1Cl)c1ccccc1 (stereo unspecified),8,1.9%,0,3%,-8,-3.0,0
O=C(Nc1cccc(S(=O)(=O)N2CCCCCC2)c1)C1CC(=O)N(c2ccc3c(c2)OCCO3)C1 (stereo unspecified),9,3.1%,-7,x,-17,1.5,1
Cc1ccc(Nc2cc(=O)[nH]c(=O)[nH]2)cc1Cl,2,8.8%,3,9%,-6,-4.9,x
CCOC(=O)N1CCN(C(=O)C(C)n2nc(C)n3c(cc4sccc43)c2=O)CC1 (stereo unspecified),3,-1.5%[38.3 µM],1,-2%,-9,-2.1,9
CCOc1cc(C(=O)NCCOC)ccc1OC,4,-1.4%,7,15%,-22,-4.5,9
CCCn1c(SCC(=O)Nc2ccc3c(c2)CCC3)n[nH]c1=O,-24,-3.4%,4,-3%,2,2.9,8
CC1CCCCN1CCNC(=O)C1CCN(S(=O)(=O)c2cccc3nsnc23)CC1 (stereo unspecified),-13,-1.2%,7,8%,-7,-5.7,x
CCOC(=O)C(NC(C)=O)(Nc1ccc(F)cc1)C(F)(F)F (stereo unspecified),-13,-0.1%,12,-1%,-19,2.3,-2
Cc1cc(OC(=O)c2ccccc2[N+](=O)[O-])c([N+](=O)[O-])c(=O)[nH]1,-11,3.2%,8,12%,-2,-3.3,-21

# No enrichment for hits; any-hit rate near 3.7%.
